Assay outcomes from PubChem BioAssay.
HPGD block = HPGD (human) dehydrogenase inhibition; Potency, µM, without a hit: at the highest dose activity change, negative = inhibition, hits mostly inhibitors; 150,000 compounds, 4.3% hits; P15428; purified HPGD, NADH fluorescence kinetic, PGE2 substrate; active = well fitted inhibition curve with a large enough effect (not every such curve was filed as active); inconclusive = small, poorly fitted or top-dose-only effect, or another doubt; inactive = no such curve, though single readings can be large or run the other way;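 also: top concentration of the series not given in the record; plate controls included wells without enzyme; inactives centre near -10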
Target sequence (P15428 whole entry, looked up): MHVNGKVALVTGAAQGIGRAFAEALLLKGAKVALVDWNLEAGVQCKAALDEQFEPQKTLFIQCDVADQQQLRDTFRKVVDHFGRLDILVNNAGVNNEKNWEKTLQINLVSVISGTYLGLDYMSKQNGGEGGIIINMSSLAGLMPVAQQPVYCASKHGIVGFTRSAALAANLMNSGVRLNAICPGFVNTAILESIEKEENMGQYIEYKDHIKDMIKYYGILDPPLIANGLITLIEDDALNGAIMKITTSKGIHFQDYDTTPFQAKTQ
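20 nM HPGD preincubated 15 min at room temperature with compound in 50 mM Tris-HCl pH 8, 0.01% Tween 20. Started with 1 mM NAD+ and 30 uM prostaglandin E2; NADH fluorescence (360/450 nm) read 5 times over 30-s intervals, last minus first.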
* = called active by the depositor; ? = inconclusive. % is scaled to controls: 0 for no effect and ±100 for the full control effect; potency is read from the fitted curve at half-maximal effect. This is a subset; rates above refer to the full screens.

HPGD block	compound
-26%	COc1ccc(NC(=O)c2cc3nc(-c4ccccc4)cc(-c4ccccc4)n3n2)c(OC)c1
-12%	O=C(Cn1nnc(-c2cc(Cl)ccc2-n2cnnn2)n1)N1CCCc2ccccc21
-12%	O=C(NCCN1CCOCC1)C1CCC(CNS(=O)(=O)c2ccccc2)CC1 (configuration not stated)
-2%	O=C(NC1CCCC1)C(NS(=O)(=O)c1ccc(Br)s1)c1ccccc1 (configuration not stated)
?	COC(=O)C1=C(C)Nc2c(c(=O)n(C)c(=O)n2C)C1c1cccs1 (configuration not stated)
-15%	O=C(CSc1nc2c(c(=O)n1-c1ccccc1)SCC2)N1CCOCC1
-22%	Nc1cc[n+](CC(=O)c2ccc3c(c2)OCCO3)cc1
-2%	Cc1ccc(CSc2nnc(C)c(=O)n2N)cc1
?	CC(=O)c1ccc(N2CCN(C(=O)c3cc(-c4ccc5c(c4)OCO5)nc4ccccc34)CC2)cc1
-7%	CCCn1ncc(OC)c(Cl)c1=O
-6%	Nc1c2c(nc3ccc(Br)cc13)N(Cc1ccccc1)CC2
-6%	CCN(C(=O)CSc1nnc(Nc2cccc(C)c2C)s1)C1CCS(=O)(=O)C1 (configuration not stated)
-4%	NC(=O)NCCC[C@H](N)C(=O)O
-11%	Cc1ccc(NC(=O)/C(C#N)=C/c2cc(C)n(-c3ccc(N4CCOCC4)c([N+](=O)[O-])c3)c2C)c(C)c1
3%	CCOC(=O)N1C=CC(C)=C[C@@H]2[C@@H](N3C(=O)c4ccccc4C3=O)C(=O)N21
-11%	Cc1cccc(NC(=O)C2CCN(c3nc(C)cc(C)n3)CC2)c1
-3%	O=C(CC1(O)C(=O)Nc2ccccc21)c1cccnc1 (configuration not stated)
?	COC(=O)c1ccc(COc2ccc3c4c(c(=O)oc3c2)CCC4)o1
-5%	O=C1NC2(CCCCC2)C(=O)N1c1ccccc1
-13%	CN(C)S(=O)(=O)c1cccc(-c2cn3ccccc3n2)c1
-21%	CC(C)c1ccc2[nH]c(O)c(N=NC(=O)c3cccc(S(=O)(=O)N4CCCCC4)c3)c2c1
-3%	C=CCOC(=O)COCCC(C)C
-10%	O=C(Nc1ccccc1Cl)O/N=C(/c1ccccc1)c1ccccn1
-25%	Cc1cc(/C=C(\C#N)C(=O)Nc2ccccc2)c(C)n1-c1ccc2c(c1)OCO2
0%	CCN1C(=O)C2(C(C#N)=C(N)Oc3n[nH]c(-c4ccccc4)c32)c2ccccc21 (configuration not stated)
-16%	Nc1nnnn1/N=C/c1ccc(O)cc1
-12%	C=CCn1c(SCc2nc3sc4c(c3c(=O)[nH]2)CCCC4)nc2ccccc2c1=O
?	COc1cccc(/C=N/NC(=O)CNC(=O)c2ccc(S(=O)(=O)N3CCOCC3)cc2)c1OC
25µM*	Cc1cc(C)n(CCc2nc(-c3ccc(F)cc3)cs2)n1
-9%	Cc1cc(C)c(S(=O)(=O)Nc2ccc[nH]c2=O)c(C)c1

Reprinted from the part before: four compounds, then new ones.
HPGD block	compound
-12%	C=CCn1c(SCc2nc3sc4c(c3c(=O)[nH]2)CCCC4)nc2ccccc2c1=O
?	COc1cccc(/C=N/NC(=O)CNC(=O)c2ccc(S(=O)(=O)N3CCOCC3)cc2)c1OC
25µM*	Cc1cc(C)n(CCc2nc(-c3ccc(F)cc3)cs2)n1
-9%	Cc1cc(C)c(S(=O)(=O)Nc2ccc[nH]c2=O)c(C)c1
-17%	CC(C)(C)NC(=O)CSc1nc(O)cc(=O)[nH]1
-19%	CCOC(=O)c1c(NC(=O)C(Sc2ccccc2)c2ccccc2)sc(C(=O)N(C)C)c1C (configuration not stated)
-1%	CSc1cc(N2CCOCC2)nc(-c2ccccc2Cl)n1
-13%	COc1ccccc1NC(=O)C(Sc1ccccc1)c1ccccc1 (configuration not stated)
?	Cc1ccc(Nc2ccccc2)cc1
-5%	CCC(Sc1nc2ccccc2c(=O)n1CCN1CCOCC1)C(=O)NCc1cccnc1 (configuration not stated)
?	Nc1c(C(=O)OCC2CCCO2)c2nc3ccccc3nc2n1C1CCCC1 (configuration not stated)
-1%	Cc1cc2c(nn1)CCc1nonc1-2
-16%	O=C(CSc1nnc(-c2ccco2)o1)NC(=O)C1COc2ccccc2O1 (configuration not stated)
-6%	COc1cc(/C=C(/NC(=O)c2ccccc2)C(=O)Nc2cccc(O)c2)c([N+](=O)[O-])cc1OC
-8%	CC(=O)c1c(N2CCOCC2)nc(=O)n(-c2ccccc2)c1C
-16%	C/C(CCN1CCc2nc(-c3ccccc3)c(-c3ccccc3)cc2C1)=N\O[C@@H](C)c1cc(-c2c(C)cc(C)cc2C)no1
-10%	CSCCC(N=CC1=C(O)CC(C)(C)CC1=O)C(=O)O (configuration not stated)
-9%	COc1ccc(CN2CCc3ccccc3C2)c(OC)c1OC
3%	O=S1(=O)CCC(NC(=S)N2CCCCC2)C1 (configuration not stated)
-8%	FC(F)Sc1ccc(N=C2NN=C(c3ccc4c(c3)OCCO4)CS2)cc1
-24%	COc1ccc(-n2nc3cc(C)c(NC(=O)c4cccnc4)cc3n2)cc1
-8%	COc1ccc(-n2c(Cc3cc(=O)[nH]c(=O)[nH]3)nnc2SCC(=O)N2CCC(C)CC2)cc1
-8%	Nc1cc(Cl)c([N+](=O)[O-])cc1O
-17%	CC(=O)c1ccc(NC(=O)C2CCCN2S(=O)(=O)c2ccc(F)cc2)cc1 (configuration not stated)
-10%	COc1ccc(N2C(=O)c3ccc(NC(C)=O)cc3C2=O)cc1
14µM*	C/C(=N\NC(=O)c1ccn(C)n1)c1ccc(NC(=O)C2CCCC2)cc1
-13%	CCCC(=O)Nc1ccc2c(c1)nc(CN1CCN(C(C)=O)CC1)n2C
-10%	Nn1c(CSc2ccccn2)nc2ccccc2c1=O
?	COc1ccc(/C=C/C(=O)c2cccs2)cc1OC
?	Cc1cccc(-c2nc3ccccc3c(=O)n2NC(=O)/C=C/c2ccc([N+](=O)[O-])cc2)c1
-10%	CC(C)CCn1cnc2c(sc3nc4c(cc32)CSC(C)(C)C4)c1=O
16µM*	Cc1cccc(Cc2c(C)nc3nc(SCC(=O)NCc4ccco4)nn3c2C)c1
-13%	O=C1c2cccnc2Nc2ccccc2N1CCCF
-4%	CCCOc1cccc(C(=O)N(Cc2cccs2)C2CCS(=O)(=O)C2)c1 (configuration not stated)

The list goes on:
HPGD block	compound
-3%	CCOC(=O)N1CCC(NC(=O)c2cnn3ccccc23)CC1
-17%	CCOC(=O)C1CCCN(C(=O)c2cn(C)c(=O)c3cc(OC)c(OC)cc23)C1 (configuration not stated)
5%	COc1ccc(OC)c(NC(=O)CS(=O)(=O)c2ccccc2)c1
-3%	O=C(CCN1C(=O)c2ccccc2C1=O)Nc1cccnc1
0%	CC1(C)CC2(C)Nc3ccccc3N2C(=S)N1 (configuration not stated)
-30%	O=C(OCC(=O)c1cccs1)c1ccc(NC(=O)c2ccco2)cc1
-14%	O=C(NCc1ccc2c(c1)OCO2)C1CC(=O)N(CCc2ccccc2)C1 (configuration not stated)
-11%	C=CCn1c(CNc2ccccc2)nnc1SCC(=O)N/N=C/c1ccc(O)cc1O
-15%	S=C(NCCc1ccccn1)Nc1cccc(Cl)c1
-21%	CC(=O)c1c(OCC(=O)O)ccc2c(C)cc(=O)oc12
?	COc1ccc2c(OC)c3ccoc3nc2c1OC
-9%	Cc1ccc(/C=C2\SC(=S)N(c3c(C)n(C)n(-c4ccccc4)c3=O)C2=O)cc1
?	C=C(C)C1CC=C(C)/C(=N/NC(=O)c2cccs2)C1 (configuration not stated)
-12%	COC(=O)\C(C(C)=O)=C(/C=C/C=C/C=C/N(C)C)N(C)C
-15%	Cc1sc2nc(SCc3nc(-c4ccccc4)no3)n(-c3ccccc3)c(=O)c2c1C
-7%	CS(=O)(=O)n1nc(-c2ccc(Cl)cc2)nc1SCc1ccccc1
?	O=C1C(=O)c2ccccc2C(O)=C1C(CCc1ccccc1)C1=C(O)c2ccccc2C(=O)C1=O
-8%	Cc1nnc(SCC(=O)Nc2ncc(Cc3ccc(F)cc3)s2)n1N
-2%	CN(C)S(=O)(=O)c1ccc2nnn(OCC(=O)NC34CC5CC(CC(C5)C3)C4)c2c1
-4%	CCOC(=O)c1c(C)oc2cc(Br)c(OC)cc12
-12%	C=CCN(CC=C)S(=O)(=O)c1ccc(NC(=S)NC(=O)Cc2ccc(OC)cc2)cc1
-4%	O=C1CCCC2[C@@H]3CCC[N@+]4([O-])CCC[C@H](CN12)C34 (some centres not stated)
-10%	COc1ccc(Nc2nc(N)nc(CN3CCc4ccccc4C3)n2)cc1
-12%	COc1ccc(/C=N/NC(=O)CSCc2ccc([N+](=O)[O-])cc2)cc1OC
0%	Cc1ccccc1C(=O)O/N=C1\CCS(=O)(=O)c2sccc21
-20%	CCOc1ccc(CC2c3cc(OCC)c(OCC)cc3CCN2C(=O)c2cc(OC)c(OC)c(OC)c2)cc1OCC (configuration not stated)
-14%	COC(=O)c1cc(NS(=O)(=O)c2ccc(NC(C)=O)cc2)cc(C(=O)OC)c1
-1%	O=C(CN1CCOCC1)NN=C1CCCCCCCCCCC1
-2%	CN1CCN(Cc2oc(CO)cc(=O)c2O)CC1
-8%	Cc1ccc(C(=O)N2CCN(C(=O)CN3CCCC3)C2)cc1

Remaining list, next part:
HPGD block	compound
-4%	O=c1[nH]nc2c3ccccc3cnn12
5%	Cc1ccc(C)c(N2CCN(CCCNC(=O)Cn3cc4c(n3)CCC(C)C4)CC2)c1 (configuration not stated)
-13%	CCCCN(C)CCCNC(=O)CCn1nc(-c2ccccc2)ccc1=O
-6%	CCCCC(=O)NC(NC(=O)CCCC)c1ccc(OCCC)c(OC)c1
-8%	O=C(COC(=O)c1cccc(S(=O)(=O)N2CCc3ccccc32)c1)Nc1ncc(Cl)cc1Cl
-12%	Clc1ccc(CN2CCC(Cc3ccccc3)CC2)cc1
-12%	C=CCNC(=O)CC(=O)N/N=C/c1ccccc1F
?	COc1ccc(CCNc2oc(-c3cccc4ccccc34)nc2P(=O)(OC)OC)cc1OC
?	O=C(NCC1CCCO1)C1CCN(S(=O)(=O)N2CCCC2)CC1 (configuration not stated)
-13%	Cc1ccc(C(=O)N/C(=C\c2ccc(Br)cc2)c2nc(=S)[nH][nH]2)cc1
-4%	COc1ccc(OC)c(C(c2nnnn2C2CCCC2)N2CCN(c3ccccc3F)CC2)c1 (configuration not stated)
-19%	O=C1/C(=C\c2ccc(-c3ccccc3Cl)o2)SC(=S)N1CC1CCCO1 (configuration not stated)
-13%	CCn1c(NCc2ccco2)nc2c1c(=O)n(C)c(=O)n2C
?	O=C(O)CCc1nn2c3ccccc3n(CC(=O)c3ccccc3)c2nc1=O
-16%	CN(C)S(=O)(=O)Oc1ccsc1C(=O)Nc1cccc(Cl)c1
-11%	COc1ccnc(Nc2ccc(C)c(C)c2)c1C#N
-4%	O=C(Cn1cnc2c(oc3ccccc32)c1=O)NCc1ccccc1
22µM*	CCOC(=O)c1c(-c2ccc(C)o2)csc1NC(=O)COC(=O)c1cccs1
-5%	CNc1nc(Nc2ccc(C)c(Cl)c2)nc(N)c1[N+](=O)[O-]
?	Cc1ccc(C(=O)OC2=CC(=O)CC(C)(C)C2)cc1
14µM*	CCCCC(=O)NCc1ccc(Cl)cc1
-16%	Cc1nn(C)c(C(=O)N2CCc3ccccc32)c1Br
-6%	CC(=O)c1c(C(C)=O)c(C)n(-c2ccc(O)cc2)c1C
-11%	CSc1nnc(-c2cc(C)on2)n1-c1ccccc1
-7%	COCCCN1C(=O)c2ccccc2C1C(=O)NC1CCCCCC1 (configuration not stated)
-19%	CC1CC(C)CN(C(=O)CSc2nc(Cc3cccs3)nc3ccccc23)C1 (configuration not stated)
-12%	CCCOC(=O)c1ccc(NC(=O)C(=O)NCC2CCCO2)cc1 (configuration not stated)
-30%	C=CCOc1ccc(/C(O)=C2\C(=O)C(=O)N(CCCOC)C2c2ccncc2)cc1 (configuration not stated)
4%	CC(C)(C)C(=O)N=C1SC2CS(=O)(=O)CC2N1c1ccc2c(c1)OCO2 (configuration not stated)
-10%	COC(=O)Cn1cnc2c(C#N)c3n(c2c1=O)CCCC3

Part of the list above in order of SMILES length, highest first.
HPGD block	compound
-17%	CCOC(=O)C1CCCN(C(=O)c2cn(C)c(=O)c3cc(OC)c(OC)cc23)C1 (configuration not stated)
-17%	CC(=O)c1ccc(NC(=O)C2CCCN2S(=O)(=O)c2ccc(F)cc2)cc1 (configuration not stated)
-4%	O=C1CCCC2[C@@H]3CCC[N@+]4([O-])CCC[C@H](CN12)C34 (some centres not stated)

Part of the list above, tab-delimited.
Molecule	HPGD block
Cc1ccc(C(=O)N/C(=C\c2ccc(Br)cc2)c2nc(=S)[nH][nH]2)cc1	-13%
COc1ccc(OC)c(C(c2nnnn2C2CCCC2)N2CCN(c3ccccc3F)CC2)c1 (configuration not stated)	-4%
O=C1/C(=C\c2ccc(-c3ccccc3Cl)o2)SC(=S)N1CC1CCCO1 (configuration not stated)	-19%
CCn1c(NCc2ccco2)nc2c1c(=O)n(C)c(=O)n2C	-13%
O=C(O)CCc1nn2c3ccccc3n(CC(=O)c3ccccc3)c2nc1=O	?
CN(C)S(=O)(=O)Oc1ccsc1C(=O)Nc1cccc(Cl)c1	-16%

New compounds follow:
HPGD block	compound
-18%	C/C(=N\NC(=O)c1ccc(CSc2nc(C)cc(C)n2)cc1)C1CCCCC1
-16%	Cc1nnc(SCC(=O)N2CCc3ccccc32)n1-c1ccccc1
-14%	CN(CC(=O)Nc1ccc(C#N)cc1)Cc1ccc(Cl)c(Cl)c1
-10%	COn1c(C)c(C(C)=O)c2c3no[n+]([O-])c3ccc21
-23%	COc1ccc2[nH]c(=O)c(NC(N)=S)nc2c1
5%	O=C(O)CCCCNS(=O)(=O)c1ccc(Cl)c(C(F)(F)F)c1
4%	Cc1csc2nc(CSc3nncn3-c3ccccc3)c(Br)n12
